gsp antag = qHTS for Antagonists of gsp, the Etiologic Mutation Responsible for Fibrous Dysplasia/McCune-Albright Syndrome: qHTS. AID 624288, 2012. 340,000 compounds, 0.4% hits. Potency, µM (series often up to 76.9 µM), for inactives: at the highest dose activity change, negative = inhibition, hits mostly inhibitors. gsp-mutant cells, cAMP HTRF, 30 min; control for the full effect not named in the record; active = falling curve of any shape with a large fitted effect; inconclusive = falling curve, mostly with a smaller effect; inactive = flat or rising curve; cell line not stated here;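 also: intracellular cAMP measured with PDE inhibitor Ro 20-1724 present during compound exposure; potency is read from the fitted curve at half-maximal effect; % is scaled to controls: 0 for no effect and ±100 for the full control effect; nearly all actives have a fitted effect of over 65% in size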
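Measurement of cellular cAMP by homogeneous time-resolved fluorescence following a 30 min compound exposure at 37C. The PDE inhibitor […] was present throughout; the assay buffer was DPBS with 0.05% BSA and 0.005% Tween 20.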
ClpP mod = qHTS Assay for Activators of ClpP; purified B. subtilis ClpP, FRET peptide cleavage, 20 min; Potency, µM (highest dose often 57.5 µM), inactives show top-dose activity change, negative = active; 340,000 compounds, 1.9% hits; active = well fitted falling curve with a large enough effect; inconclusive = small, poorly fitted or top-dose-only effect; inactive = no such curve, though single readings can be large or run the other way; also: potency is read from the fitted curve at half-maximal effect; the source files actives as falling curves though it sought activators and does not explain the sign; nearly all actives have a fitted effect of over 65% in size; many hits overshoot -100%
Target sequence (P80244 whole entry, looked up): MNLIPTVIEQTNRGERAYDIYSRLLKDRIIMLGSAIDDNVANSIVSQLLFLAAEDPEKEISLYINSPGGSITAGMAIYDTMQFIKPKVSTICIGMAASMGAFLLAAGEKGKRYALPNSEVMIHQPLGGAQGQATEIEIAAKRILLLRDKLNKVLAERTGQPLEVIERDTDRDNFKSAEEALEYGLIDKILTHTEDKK
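Buffer: 100 mM Tris/HCl pH8, 100 mM KCl, 0.05% low protease BSA, 2.5% glycerol, 0.01% Tween-20. ClpP 10 microg/mL final; 20 min RT; delta FRET normalized to ADEP and DMSO controls.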
gsp ag = qHTS for Agonist of gsp, the Etiologic Mutation Responsible for Fibrous Dysplasia/McCune-Albright Syndrome: qHTS. gsp mutant cells, cAMP HTRF, 30 min; control for the full effect not named in the record. Potency, µM (series often up to 76.9 µM), for inactives: top-dose activation (cAMP increase), most hits filed as activators. 340,000 compounds, 0.13% hits. AID 624287, 2012; active = well fitted activation curve with a large enough effect; inconclusive = small, poorly fitted or top-dose-only effect, or another doubt; inactive = no such curve, though single readings can be large or run the other way; cell line not stated here;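 also: phosphodiesterase inhibitor Ro 20-1724 added with compounds to block cAMP breakdown; potency is read from the fitted curve at half-maximal effect; nearly all actives have a fitted effect of over 60% in size; about a fifth of the inactives were tested at one dose only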
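Cells in DMEM/10% FBS with G418 were pretreated with compounds in DMSO plus […] (300 uM stock) for 30 min at 37C. cAMP was measured by HTRF (cAMP-d2 plus anti-cAMP antibody-K) after 30 min at room temperature.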
D2 ag = Beta-Arrestin HTS for Positive Allosteric Modulators of the Human D2 Dopamine Receptor: Agonists. AID 624465, 2012. D(2) dopamine receptor (Homo sapiens), P14416. DiscoveRx PathHunter D2 beta-arrestin, luminescence, 90 min; 100% = 57 uM dopamine signal. activation, % (test concentration not listed). 360,000 compounds, 0.084% hits; in the data active = activation above about 40%; inconclusive = about 15% to 40%; inactive = below about 15%; also: compound concentration not given in the record; the text of the record calls up to 30% inactive
Target sequence (P14416 whole entry, looked up): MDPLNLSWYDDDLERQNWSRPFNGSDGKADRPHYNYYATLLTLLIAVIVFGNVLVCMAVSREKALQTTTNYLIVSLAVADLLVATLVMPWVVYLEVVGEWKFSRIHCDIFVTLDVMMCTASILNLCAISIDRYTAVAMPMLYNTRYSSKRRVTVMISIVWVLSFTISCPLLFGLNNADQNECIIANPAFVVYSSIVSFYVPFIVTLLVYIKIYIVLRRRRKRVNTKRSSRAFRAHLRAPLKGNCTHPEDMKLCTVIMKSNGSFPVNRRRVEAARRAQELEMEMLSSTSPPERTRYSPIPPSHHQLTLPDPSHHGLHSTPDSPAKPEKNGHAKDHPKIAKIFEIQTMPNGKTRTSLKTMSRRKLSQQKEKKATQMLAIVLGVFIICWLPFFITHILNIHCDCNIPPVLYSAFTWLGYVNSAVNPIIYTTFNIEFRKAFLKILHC
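DiscoveRx PathHunter D2 beta-arrestin cells (2,100/well) attached overnight, then compound-stimulated 90 min at 37 C in HBSS/10 mM HEPES/0.1% Tween-20 buffer; beta-galactosidase complementation read by luminescence after 1 h at ambient temperature. Dopamine 57 uM final (EC100) as control.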
PINK1 expr mod = A Quantitative High throughput Screen to Identify Chemical Modulators of PINK1 Expression; Potency, µM (titrated, usually from 76.6 µM), without a hit: at the top dose activation (PINK1 increase), most hits filed as activators; 410,000 compounds, 0.2% hits; PINK1 immunofluorescence, high-content cytometry, 24 h; AID 624263, 2012; active = well fitted activation curve with a large enough effect; inconclusive = small, poorly fitted or top-dose-only effect; inactive = flat fitted curve, though single readings scatter; cell line not stated here;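 also: potency is read from the fitted curve at half-maximal effect; % of control where 0% means no effect; nearly all actives have a fitted effect of over 65% in size; a mitochondrial uncoupler was the plate control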
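Stable cell line treated 24 h with compounds at 5 concentrations (CCCP controls), then fixed and immunostained for PINK1 plus nuclear and cell stains; PINK1 immunofluorescence quantified by laser-scanning microplate cytometry.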
Sfp PPTase inh = qHTS Assay for Inhibitors of Bacillus subtilis Sfp phosphopantetheinyl transferase (PPTase); 4'-phosphopantetheinyl transferase ffp (Bacillus subtilis), Q9F4F7; Biochemical Sfp PPTase activity, qHTS; Potency, µM, without a hit: max response, negative = inhibition, usual class: inhibitors; 310,000 compounds, 3.5% hits; AID 1490, 2009; active = well fitted inhibition curve with a large enough effect; inconclusive = small, poorly fitted or top-dose-only effect, or another doubt; inactive = no such curve, though single readings can be large or run the other way;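 also: the enzyme is Sfp with the accession as filed and its product quenches rhodamine fluorescence; potency is read from the fitted curve at half-maximal effect; 0% = enzyme reaction without inhibitor and -100% = no enzyme wells; top concentration of the series not given in the record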
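Buffer: 50 mM Hepes-Na pH 7.6, 10 mM MgCl2, 0.01% Nonidet P-40, 0.01% BSA. Enzyme 15 nM, pre-exposed to compound 15 min; substrates then added and fluorescence change tracked over 30 min.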
Menin-MLL FL inh = qHTS Assay for Inhibitors Targeting the Menin-MLL Interaction in MLL Related Leukemias: Competition With Fluorescein Labeled MLL-derived Peptide | Fluorescence polarization, fluorescein-MLL peptide displacement from menin | FP activity change, % at 61.4 µM | 290,000 tested, under 10 active; inconclusive = falling polarisation curve, or a change in total fluorescence; inactive = total fluorescence flat and polarisation flat or rising; no compound was filed as active; the % refers to the polarisation; negative = inhibition;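 also: % of control where 0% means no effect; inhibitors lower the polarisation; unlabelled MLL peptide was the positive control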
* marks the source's active call; other numbers are inactive results; ? = inconclusive; · = not tested or not shown; & = joins results of further samples; [ ] = another dose, or the depositor's remark. Outcome played no part in choosing rows; overall some 5.1% were active at least once.

SMILES	gsp antag	ClpP mod	gsp ag	D2 ag	PINK1 expr mod	Sfp PPTase inh	Menin-MLL FL inh
CC(C)C(=O)N1CCN(c2ccc(NC(=O)c3cccs3)cc2Cl)CC1	28µM*	-1.4%	-21%	3.6	1.7%	5%	-4.7
C=CCNC(=O)c1ccc([N+](=O)[O-])c(Cl)c1	-8%	·	27%	-1.3	0.2%	-5%	-2.6
CCSc1ncc(Cl)c(C(=O)Nc2sc3c(c2C(=O)NCc2cccnc2)CCCC3)n1	-47%	-0.7%	-7%	1.8	11µM*	-14%	2.0
CCSC1=N/C(=C/c2ccsc2)C(=O)N1c1ccccc1	-40%	-4.8%	8%[15.4 µM]	4.8	4.0%	-7%	5.0
CCC(C)c1ccc(C(C)NC(=S)NC2CCCCC2)cc1 (centres undefined)	-17%	-3.3%	-14%[15.4 µM]	5.4	?	16%	-6.9
COc1ccc(NC(=S)N2CCC3CC2c2cc(-c4ccc5c(c4)OCO5)ccc23)c(OC)c1 (centres undefined)	·	-4.3%	·	-5.8	0.7%	·	·
Fc1ccc(-c2ccnc3nc(N4CCN(c5ccccc5)CC4)nn23)cc1	8%	-2.3%	-35%[inhibitor]	1.0	·	-15%	0.1
O=C1c2cccc3c([N+](=O)[O-])c(O)cc(c23)C(=O)N1Nc1ccccc1	?	·	1%[15.4 µM]	-5.1	3.5%	-16%	2.9
CC1Sc2ccc(S(=O)(=O)N3CCC(C(=O)NCc4ccccc4)CC3)cc2NC1=O (centres undefined)	-22%	-1.3%	1%	-3.0	-0.2%	7%	·
O=c1c2ccccc2c(C=Nc2cccc(S(=O)(=O)NCc3ccco3)c2)c(O)n1-c1ccc(Cl)cn1	-19%	-0.5%	-53%[inhibitor]	-1.1	0.1%	-3%	11
Cc1cc(NC(=O)CCCn2nc(C)c([N+](=O)[O-])c2C)no1	14%	·	-1%	-2.1	3.3%	-5%	2.6
COc1cc(CCN(C(=O)c2cccc(S(C)(=O)=O)c2)C(CCc2ccccc2)c2nc3ccccc3[nH]2)cc(OC)c1 (centres undefined)	·	-1.6%	·	3.8	1.5%	·	·
CC1(C2CC2)NC(=O)NC1=O (centres undefined)	20%	1.4%	16%	4.9	1.5%	7%	-2.5
O=C1CCCC/C=C\C[C@H](CC(=O)N(CCO)Cc2ccccc2)C(=O)NCCO1	4%	1.4%	·	-1.3	0.4%	·	·
CCCCCC(=O)NC(NC(=S)NC1CCS(=O)(=O)C1)C(Cl)(Cl)Cl (centres undefined)	-1%	-0.3%	-13%	-0.3	10%[38.3 µM]	4%	-1.8
COc1cccc(CNC(=O)C2Cc3ccccc3CN2C(C)=O)c1 (centres undefined)	9%	5.9%	-8%[15.4 µM]	5.1	-0.4%	12%	-5.2
Cc1cc(C)cc(-n2c(C)nc3cc(C(=O)O)ccc32)c1	?	0.7%	13%[15.4 µM]	-2.3	1.3%&2.0%	4%	0.2
C=CC[n+]1c(/C=C2\C=Cc3cc(C)ccc3N2CC)ccc2ccccc21	-26%	-2.8%	?	-1.8	?	-13%	?
COc1cc(-c2noc(CCCC(=O)NCc3ccco3)n2)cc(OC)c1OC	-2%	0.2%	-2%	1.4	-0.3%	15%	3.4
CC1CN(C(=O)c2cc3cc(Br)ccc3[nH]2)CC(C)O1 (centres undefined)	-2%	-23%	18%[15.4 µM]	-3.1	-1.9%	6%	8.4
O=C(Oc1coc(CSc2nnc(NC(=O)C3CC3)s2)cc1=O)c1ccccc1	7%	-0.3%	8%	0.8	1.2%	-3%	4.8
CCc1cc2c(cc3c(=O)n(CC(=O)NCCCN4CC(C)CC(C)C4)ncn32)s1 (centres undefined)	9%	-2.9%	13%	-5.6	-0.7%	3%	1.7
Cc1cccc(OCC(=O)N(Cc2ccco2)C2CCS(=O)(=O)C2)c1 (centres undefined)	3%	1.5%	-33%	-1.2	-0.5%	17%	1.7
O=C(/C=C/c1ccc2c(c1)OCCCO2)c1ccccc1O	5%	-0.4%	-2%	-0.8	-2.3%	-19%	4.9
COc1cc(/C=C(\C#N)C(=O)c2c(C)[nH]c3ccccc23)cc(OC)c1OC	-10%	1.6%	31%[15.4 µM]	6.5	6.0%	-16%	5.5

(listing goes on)
SMILES	gsp antag	ClpP mod	gsp ag	D2 ag	PINK1 expr mod	Sfp PPTase inh	Menin-MLL FL inh
CN(CC(=O)O)Cc1oc(CO)cc(=O)c1O	8%	-2.1%	-8%	-2.1	-2.8%	·	·
O=[n+]1c2c(n([O-])c3ccccc31)CCCC2	7%	-0.2%	28%	1.5	-5.2%[38.3 µM]	?	-1.7
Cc1ccc(-c2nnc(SCC(=O)N/N=C/c3c(C)nn(-c4ccccc4)c3C)n2-c2ccccc2)cc1	-9%	3.3%	-3%	0.3	-0.3%	-3%	8.2
Cc1ccc(S(=O)(=O)N2CCCOC2CNC(=O)C(=O)NCCCn2ccnc2)cc1 (centres undefined)	10%	-23%	-40%[inhibitor]	-2.1	-1.2%	-6%	-1.0
COc1cc(NC(=O)COC(=O)CNC(=O)C2CCCCC2)cc(OC)c1	-11%	1.0%	-17%	-2.8	-0.9%	·	·
CCCNC(=O)NC(=O)CSc1ccc2c(c1)OCCO2	9%	-17%	0%	0.3	-0.7%	7%	0.0
Cn1c(=O)c(=O)n(C)c2cc(N3CCOCC3)c(NS(=O)(=O)c3ccc([N+](=O)[O-])cc3)cc21	-6%	?	?	9.7	2.5%	50µM*	-2.3
CCCn1c(=S)[nH]c2cc(C(=O)NCc3ccccc3OC)ccc2c1=O	·	-1.7%	23%	-3.3	6.7%	·	·
CC(C)[C@H](NC(=O)Nc1cccc(C(F)(F)F)c1)C(=O)O	-6%	-2.1%	?	0.7	-1.5%	13%	-1.3
Cc1ccccc1CC(=O)Nc1ccc(C(=O)N2CCCC2)cc1	-2%	0.6%	?	11	2.0%	9%	-0.7
O=C(CN1C(=O)NC2(CCCCC2)C1=O)N1CCN(S(=O)(=O)c2ccc(Cl)s2)CC1	-4%	-1.5%	-7%	6.7	-0.5%	·	·
CCC1CCCCN1CCCNC(=O)CCC(=O)N1CCOc2ccccc21 (centres undefined)	7%	-0.6%	-4%	-5.3	0.9%	8%	0.4
CC(C)(C)c1ccc(-c2nnc(N)o2)cc1	17%	·	-5%[15.4 µM]	-1.2	-0.5%	6%	0.8
O=S(=O)(c1ccccc1)N1CCC2(CCN(c3ccccc3)CC2)CC1	·	·	·	·	-0.7%	-7%	1.5
O=C(Nc1ccc(F)cc1)c1sc2cc(C(F)(F)F)cnc2c1-c1cccs1	-16%[15.4 µM]	63%	-13%	-2.0	11%	0%	-0.2
Nc1cccc(O)c1	1%	0.1%	·	4.4	-0.4%	·	·
Cc1ccc2nc(Nc3nc(C)cc(C(F)(F)F)n3)nc(C)c2c1	1%	-4.0%	23%	0.2	1.4%	9%	2.0
COc1cc2cc(Oc3ccc4ccc(=O)oc4c3)c(=O)oc2cc1O	-8%	4.5%	·	-8.6	8.6%	-2%&1%	13&5.2
Cc1ccc(NC(=O)c2cnc3ccccc3n2)cc1C	-10%	·	-8%[15.4 µM]	-2.3	13%	11%	-1.4
O=C(CCNC(=O)c1ccccc1)NN=Cc1ccc(Br)o1	-6%	·	14%	-2.2	-1.4%	·	·
Cc1ccc(NC(=O)c2ccc(Cl)c(S(=O)(=O)N3CCCCCC3)c2)nc1	-15%	·	39%[15.4 µM]	-2.6	-0.6%	·	·
CC(=O)Nc1cnc(-c2ccc3c(c2)OCO3)cn1	·	-13%	·	-1.9	-0.7%	·	·
CCC(C)NC(=O)C1CCN(S(=O)(=O)c2ccc(-n3cnnn3)cc2)CC1 (centres undefined)	4%	·	?	-0.5	-0.8%	14%	7.7
COc1ccc(CCC(=O)OCC(=O)c2ccc[nH]2)cc1OC	-6%	1.3%	-43%[inhibitor]	0.0	0.5%	·	·
CN(C)c1nccc(N(Cc2ccccc2)Cc2ccccc2)c1C#N	-7%	?	-22%	-0.6	13%	-6%	0.2

Next section.
SMILES	gsp antag	ClpP mod	gsp ag	D2 ag	PINK1 expr mod	Sfp PPTase inh	Menin-MLL FL inh
COc1ccc(OC)c(N2C(=O)CC(Cc3cc(C)cc(C)c3)C2=O)c1 (centres undefined)	-2%	2.2%	-31%[inhibitor]	-0.8	8.8%[38.3 µM]	3%	5.5
CC(C)(C)NC(=O)CSc1n[nH]c(=O)n1-c1ccccc1	0%	4.1%	-6%	-0.8	?	1%	6.0
CC(C)C[C@H]1CNC(=O)C(=O)N1CC1CCN(CC2CCC(C(C)(C)C)CC2)CC1 (some centres undefined)	4%	0.2%	·	-7.4	0.7%	·	·
CCC(C)NS(=O)(=O)c1ccc(OCC(=O)N2CCCC2)cc1 (centres undefined)	3%	-0.6%	-7%	-0.5	·	0%	0.1
N#C/C(=N\Nc1cccc([N+](=O)[O-])c1)C(=O)c1ccc(Br)cc1	-121%	·	-14%[15.4 µM]	-1.0	4.5µM*	-6%	-0.4
C/C(CC(=O)N(C(C)C)C(C)C)=N\NC(=O)c1ccccc1Br	12%	1.1%	?	-1.0	-0.1%	35%[activator]	1.7
COc1ccc2c(c1)sc1nc(-c3ccccc3)cn12	-11%	-0.4%	-47%	1.7	21%	50µM*	-0.1
COc1ccccc1CNC(=O)C(NS(=O)(=O)c1ccc2c(c1)OCCO2)C(C)C (centres undefined)	-6%	0.7%	28%	-0.1	3.1%	-6%	0.5
